gsp antag: antagonizes gsp, the McCune-Albright syndrome mutation; gsp-mutant cells, cAMP HTRF, 30 min; control for the full effect not named in the record; Potency, µM (series often up to 76.9 µM), inactives show top-dose activity change, negative = inhibition, actives largely listed as inhibitors; hit rate 0.4% among 340,000; active = falling curve of any shape with a large fitted effect; inconclusive = falling curve, mostly with a smaller effect; inactive = flat or rising curve; cell line not stated here;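 note: intracellular cAMP measured with PDE inhibitor Ro 20-1724 present during compound exposure; potency is the fitted concentration of half-maximal effect; % is set by controls: 0 for no effect and ±100 for the full control effect; nearly all actives have a fitted effect of over 65% in size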
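Measurement of cellular cAMP by homogeneous time-resolved fluorescence following a 30 min compound exposure at 37C. The PDE inhibitor […] was present throughout; the assay buffer was DPBS with 0.05% BSA and 0.005% Tween 20.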
PINK1 expr mod: modulators of PINK1 expression. PINK1 immunofluorescence, high-content cytometry, 24 h. Potency, µM (doses to about 76.6 µM), for inactives: at the highest dose activation (PINK1 increase), actives largely listed as activators. hit rate 0.2% among 410,000; active = well fitted activation curve with a large enough effect; inconclusive = small, poorly fitted or top-dose-only effect; inactive = flat fitted curve, though single readings scatter; cell line not stated here;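 note: potency is the fitted concentration of half-maximal effect; % of control where 0% means no effect; nearly all actives have a fitted effect of over 65% in size; a mitochondrial uncoupler was the plate control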
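Measures PINK1 amount and localization on or inside mitochondria by immunofluorescence. Stable cells get compounds at 5 concentrations for 24 hours before fixation and staining; CCCP controls included.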
ClpP mod: qHTS Assay for Activators of ClpP. ATP-dependent Clp protease proteolytic subunit (Bacillus subtilis (strain 168)), P80244. purified B. subtilis ClpP, FRET peptide cleavage, 20 min. Potency, µM (doses to about 57.5 µM), without a hit: top-dose activity change, negative = active. hit rate 1.9% among 340,000; active = well fitted falling curve with a large enough effect; inconclusive = small, poorly fitted or top-dose-only effect; inactive = no such curve, though single readings can be large or run the other way; note: potency is the fitted concentration of half-maximal effect; the source files actives as falling curves though it sought activators and does not explain the sign; nearly all actives have a fitted effect of over 65% in size; many hits overshoot -100%
Target sequence (P80244 whole entry, looked up): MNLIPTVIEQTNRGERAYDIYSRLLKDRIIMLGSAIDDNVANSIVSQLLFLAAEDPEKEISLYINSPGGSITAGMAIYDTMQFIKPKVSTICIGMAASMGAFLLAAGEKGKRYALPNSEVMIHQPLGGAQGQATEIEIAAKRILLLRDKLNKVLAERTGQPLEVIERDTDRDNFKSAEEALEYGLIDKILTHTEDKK
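FRET quenching reversal measured ClpP activation: 10 microg/mL B. subtilis ClpP at pH 8 with the FRET-FV decapeptide, read at 430 nm after 320 nm excitation. The 20-min minus 0-min signal was scaled between DMSO/no-enzyme wells and ADEP (5.8 microM final).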
Sfp PPTase inh: inhibitors of Bacillus subtilis Sfp phosphopantetheinyl transferase. Biochemical Sfp PPTase activity, qHTS. Potency, µM, for the others: max response, negative = inhibition, actives largely listed as inhibitors. hit rate 3.5% among 310,000. Q9F4F7; active = well fitted inhibition curve with a large enough effect; inconclusive = small, poorly fitted or top-dose-only effect, or another doubt; inactive = no such curve, though single readings can be large or run the other way;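 note: the enzyme is Sfp with the accession as filed and its product quenches rhodamine fluorescence; potency is the fitted concentration of half-maximal effect; 0% = enzyme reaction without inhibitor and -100% = no enzyme wells; top concentration of the series not given in the record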
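Step 1, compound plus 15 nM Sfp-PPTase, 15 min, room temperature. Step 2, add rhodamine-CoA (5 uM) and BHQ-2-YbbR (12.5 uM). Step 3, read 525/598 nm fluorescence at 0 and 30 min.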
Menin-MLL FL inh: inhibitors of human menin-MLL interaction, wild-type MLL peptide. Fluorescence polarization, fluorescein-MLL peptide displacement from menin. FP activity change, % at 61.4 µM. 290,000 tested, under 10 active. AID 1766; inconclusive = falling polarisation curve, or a change in total fluorescence; inactive = total fluorescence flat and polarisation flat or rising; no compound was filed as active; the % refers to the polarisation; negative = inhibition;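 note: % of control where 0% means no effect; inhibitors lower the polarisation; unlabelled MLL peptide was the positive control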
gsp agonist: agonists of gsp mutant (McCune-Albright syndrome) | Potency, µM (doses to about 76.9 µM), inactives show at the highest dose activation (cAMP increase), hits mostly activators | gsp mutant cells, cAMP HTRF, 30 min; control for the full effect not named in the record | hit rate 0.13% among 340,000; active = well fitted activation curve with a large enough effect; inconclusive = small, poorly fitted or top-dose-only effect, or another doubt; inactive = no such curve, though single readings can be large or run the other way; cell line not stated here;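 note: phosphodiesterase inhibitor Ro 20-1724 added with compounds to block cAMP breakdown; potency is the fitted concentration of half-maximal effect; nearly all actives have a fitted effect of over 60% in size; about a fifth of the inactives were tested at one dose only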
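Cells in DMEM/10% FBS with G418 were pretreated with compounds in DMSO plus […] (300 uM stock) for 30 min at 37C. cAMP was measured by HTRF (cAMP-d2 plus anti-cAMP antibody-K) after 30 min at room temperature.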
D2 ag: activates the human D2 dopamine receptor | P14416 | DiscoveRx PathHunter D2 beta-arrestin, luminescence, 90 min; 100% = 57 uM dopamine signal | activation, % (no concentration beside the values) | hit rate 0.084% among 360,000 | AID 624465; in the data active = activation above about 40%; inconclusive = about 15% to 40%; inactive = below about 15%; note: compound concentration not given in the record; the text of the record calls up to 30% inactive
Target sequence (P14416 whole entry, looked up): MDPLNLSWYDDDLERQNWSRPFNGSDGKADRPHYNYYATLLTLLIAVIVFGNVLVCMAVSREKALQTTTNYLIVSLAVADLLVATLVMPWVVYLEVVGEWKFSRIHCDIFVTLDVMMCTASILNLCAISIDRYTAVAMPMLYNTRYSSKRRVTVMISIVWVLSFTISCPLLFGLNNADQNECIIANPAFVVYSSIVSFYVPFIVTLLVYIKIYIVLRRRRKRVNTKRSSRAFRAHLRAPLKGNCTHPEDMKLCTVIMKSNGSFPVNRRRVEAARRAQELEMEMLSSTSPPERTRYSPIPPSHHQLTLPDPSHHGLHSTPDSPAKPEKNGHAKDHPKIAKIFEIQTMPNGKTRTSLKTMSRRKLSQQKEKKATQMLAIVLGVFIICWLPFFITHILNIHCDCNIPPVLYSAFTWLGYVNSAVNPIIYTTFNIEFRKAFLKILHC
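DiscoveRx PathHunter D2 beta-arrestin cells (2,100/well) attached overnight, then compound-stimulated 90 min at 37 C in HBSS/10 mM HEPES/0.1% Tween-20 buffer; beta-galactosidase complementation read by luminescence after 1 h at ambient temperature. Dopamine 57 uM final (EC100) as control.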
Numbers without * were called inactive; ? = inconclusive; / = not tested or not shown; & = joins results of further samples; [ ] = remark or other dose.

SMILES	gsp antag	PINK1 expr mod	ClpP mod	Sfp PPTase inh	Menin-MLL FL inh	gsp agonist	D2 ag
CC[N+]1(C)[C@@H]2CC[C@H]1CC(OC(=O)[C@H]1CCC(C(=O)OC3C[C@H]4CC[C@@H](C3)[N+]4(C)CC)(c3ccccc3)c3ccccc31)C2 (some centres not stated)	-1%	2.5%	-0.3%	/	/	/	-3.5
Cc1cccc(N(CC(=O)NCc2ccc3c(c2)OCO3)C(=O)CCC(=O)Nc2ccccn2)c1C	4%	-0.4%	1.3%	-6%	2.1	?	-4.5
COc1ccc(OC)c(CNC(=O)COc2cc(=O)n(C)c3ccccc23)c1	16%	-1.5%	-5.5%	/	/	-15%	0.8
CCc1ccc2[nH]c(=O)c(CN(Cc3ccco3)S(=O)(=O)c3ccc4c(c3)OCCO4)cc2c1	15%	?	?	12%	2.2	-15%	0.3
O=C(NCCc1ccc(Cl)cc1)C1CCN(S(=O)(=O)c2cccc3nonc23)CC1	4%	1.9%	1.5%	11%	3.3	1%	-2.9
O=C(NCCCCCNC(=O)c1ccco1)c1ccco1	29%	-0.9%	1.1%	5%	2.3	-92%[inhibitor]	-2.9
Cc1ccc(S(=O)(=O)N(C)C)cc1NC(=O)COC(=O)Cc1ccc(Br)cc1	-2%	1.2%	/	6%	-1.3	7%[15.4 µM]	-1.1
Cc1ccc(C(=O)NC(=S)NNC(=O)c2ccccc2)cc1	6%	1.5%	-2.6%	11%	3.6	8%	-4.5
CC(C)c1ccc(S(=O)(=O)N2CCN(C(=O)c3cc([N+](=O)[O-])ccc3N3CCOCC3)CC2)cc1	?	-1.6%	0.6%	3%	-0.1	?	-3.2
CCOc1ccc(C(=O)NCC(=O)OCc2cc([N+](=O)[O-])cc3c2OCOC3)cc1OCC	-16%	-1.7%	1.6%	6%	-5.4	6%	-7.0
Cc1nn(-c2ccccc2)c(N2CCCC2)c1/C=N/O	3%	?	0.0%	5%	-0.2	?	-0.5
O=C(Nc1ccc2ncccc2c1)Nc1ccc2ncccc2c1	-12%	4.3%	-8.3%	-12%	5.8	?	7.7
S=c1nc(Cc2ccc(Cl)cc2)[nH]c2ccccc12	2%	11%	/	15%	-2.8	?	-2.3
COc1ccc(-c2[nH]ncc2CN2CCC(C(=O)c3ccc(F)cc3)CC2)cc1	15%	0.4%	/	8%	1.0	2%	-4.1
Cc1ccc(NC(=O)CNC(=O)c2ccccc2F)cc1Cl	2%	?	-1.3%	-9%	-2.2	12%	-0.5
N#C/C(=C(/O)c1cccc(F)c1)c1nc2ccccc2s1	-7%	40µM*	-3.8%	-6%	-0.7	0%	0.7
Cc1cc2c(cc1S(=O)(=O)N(C)Cc1ccccc1)n(C)c(=O)c(=O)n2C	-9%	-0.4%	-20%	14%	-1.2	3%	2.1
O=C(c1ccc(F)cc1)c1cnc(Nc2ccccc2)s1	11%	1.6%	/	21%	-4.8	-16%[15.4 µM]	-4.5
O=C(NCCCN1CCCC1)c1ccc(CS(=O)(=O)c2ccc(Cl)cc2)o1	-5%	0.7%	-0.8%	2%	/	6%	-4.0
CC1(C)Cc2cccc(OCC(=O)OCC(=O)c3ccccc3)c2O1	0%	-1.7%	-5.6%	/	/	-31%[inhibitor]	-3.8
CC(C)CC1Nc2ncnc(N3CCN(c4ccccn4)CC3)c2N(Cc2ccc(Br)cc2)C1=O (configuration not stated)	6%	9.9%&18%	-12%&-14%	/	/	-14%	-6.6&-15
O=C1C2CCCN2C(c2ccccc2)N1c1nccs1 (configuration not stated)	-2%	1.7%	-1.4%	50µM*	2.6	-4%	-0.5
CC(C)CCNC(=O)C1CC(=O)N(C2CCCC2)C1 (configuration not stated)	11%	8.1%[38.3 µM]	1.0%	11%	0.5	-8%	-1.5
COc1ccc(NC(=O)CCc2ccccc2)cc1S(=O)(=O)N1CCOCC1	-2%	3.1%	3.2%	/	/	8%	-0.6
OC[C@@H]1CN(Cc2ccccc2)C[C@H](n2cnc3c(NCc4ccncc4)ncnc32)O1	/	0.5%	1.8%	/	/	/	8.2
New compounds follow
SMILES	gsp antag	PINK1 expr mod	ClpP mod	Sfp PPTase inh	Menin-MLL FL inh	gsp agonist	D2 ag
CC(=O)NS(=O)(=O)c1ccc(NC(=O)CC(C)c2ccccc2)cc1 (configuration not stated)	-3%	0.5%	/	9%	1.5	-41%[inhibitor]	2.2
O=C(Oc1ccc2[nH]cc(CCN3C(=O)c4ccccc4C3=O)c2c1)c1ccco1	-6%	/	-1.4%	-9%	3.4	-13%	-1.4
OCCNCCOc1ccccc1F	-2%	0.0%	0.7%	17%	-0.6	3%	4.2
Cc1ccc2c(c1)[C@H]1[C@H](CO2)[C@H](c2ccccc2)[C@]2(C)C(=O)Nc3cc(F)c(F)cc3C(=O)N12	-11%	8.2%	-4.6%	/	/	/	0.3
N#Cc1ccsc1NC(=O)CN1CCN(c2ccccc2O)CC1	-21%	2.4%	-15%	16%	6.4	2%	2.8
CCc1nc2ccc(C(=O)Nc3cccc(NS(C)(=O)=O)c3)cn2c1N(C)C(=O)c1cccc(OC)c1	/	0.2%	-5.1%	/	/	/	2.0
CCOc1nc(NCCN2CCOCC2)nc(Nc2ccc(C)cc2)n1	15%	-1.4%	1.1%	7%	0.1	0%	-1.7
CCOC1=C2[C@H](c3ccccc3)N(S(=O)(=O)c3ccc(C)cc3)C(C(C)(C)C)[C@H]2C(C#N)(C#N)C(C#N)(C#N)C1 (some centres not stated)	/	5.1%	-0.9%	/	/	/	1.5
CCOc1cc(/C=N/NC(=O)C(=O)N/N=C/c2ccc(O)c(OCC)c2)ccc1O	8%	1.3%	-21%	22%	2.1	-8%[15.4 µM]	-1.7
CCCCCn1nc(C(=O)OCc2nc(N)nc(Nc3ccccc3)n2)c2ccccc2c1=O	-13%	1.7%	/	/	/	?	1.8
Cc1cc([N+](=O)[O-])nn1CC(=O)Nc1cnc2ccccc2c1	-14%	1.7%	/	14%	-3.3	33%[15.4 µM]	-1.1
Cc1ccc(-c2csc(N3CCC(NS(=O)(=O)c4ccc5c(c4)OCCO5)CC3)n2)cc1	-15%	-0.7%	-1.0%	12%	8.4	12%	-0.4
O=C(CN1C(=O)NC2(CCCCCC2)C1=O)N1CCC(Cc2ccccc2)CC1	5%	1.5%	1.3%	12%	1.9	-30%[inhibitor]	-1.0
C[C@H](NC(=O)c1nc[nH]c1C(=O)NC1CCN(C(=O)OC(C)(C)C)CC1)C(=O)OCc1ccccc1	-25%	7.1%	0.1%	1%	5.0	9%	1.5
CC1CCN(c2nc(Cl)nc(Nc3ccc([N+](=O)[O-])cc3)n2)CC1	10%	-5.0%	0.5%	5%	2.4	16%	2.1
O=c1n(Cc2ccccc2Cl)nc2n1-c1ccccc1SC2	-23%	-0.3%	-0.3%	-3%	4.2	14%	-4.4
COc1ccc(S(=O)(=O)N(Cc2cccnc2)Cc2cc3ccccc3[nH]c2=O)cc1	-1%	-0.7%	-14%	26%	/	2%	2.7
COc1ccc(OC)c(S(=O)(=O)NCCCN2CCOCC2)c1	7%	-0.5%	9.8%	/	/	12%	-0.4
COc1ccc(C)cc1N(CC(=O)NCCN1CCOCC1)S(=O)(=O)c1ccccc1	10%	-0.1%	-2.4%	/	/	30%	-2.8
O=C(COc1ccc([N+](=O)[O-])cc1)Nn1cnnc1	2%	4.0%	/	3%	-1.8	-5%[15.4 µM]	4.2
O=C(Nc1ccc2nsnc2c1)NC1CCCCC1	6%	7.6%	?	2%	3.0	0%	-5.6
CC(C)(C)C(=O)Nc1ncccc1C(O)c1cccc(C(F)(F)F)c1 (configuration not stated)	13%	2.8%	/	17%	-2.3	1%	-3.0
COc1ccc(CNS(=O)(=O)c2cc3c4c(c2)CCN4C(=O)CC3)cc1	1%	0.8%&0.3%	0.6%&-3.6%	/	/	-2%[15.4 µM]	-5.1
C=Cn1cc(CNC[C@H]2O[C@@H](n3ccc(N)nc3=O)[C@H](O)[C@@H]2O)c(C)n1	/	5.4%	-0.9%	/	/	-42%[inhibitor]	-4.0
COc1ccc(Cl)cc1C(=O)NNC(=S)NC(=O)/C=C/c1ccco1	4%	4.3%	0.3%	?	25	-62%[inhibitor]	-2.6
Next compounds
SMILES	gsp antag	PINK1 expr mod	ClpP mod	Sfp PPTase inh	Menin-MLL FL inh	gsp agonist	D2 ag
Cc1ccc2nc(-c3ccccc3)nn2c1	-4%	1.9%	/	/	/	28%	3.6
C=CCOC(=O)C1=C(C)NC(=O)NC1c1ccc(OCC)cc1 (configuration not stated)	1%	7.3%	2.1%	13%	-6.1	-18%[15.4 µM]	-2.8
O=C(c1ccc(Cl)cc1)N1C2C=CC(C2)C1(C(F)(F)F)C(F)(F)F (configuration not stated)	-10%	0.5%	0.3%	16%	2.1	?	-2.4
CCOC(=O)C1CCCN(C(=O)c2ccc3c(c2)NC(=O)C(N2CCOCC2)S3)C1 (configuration not stated)	-5%	1.1%	-0.5%	1%	13	6%	-4.5
COc1ccc(C(C)=O)cc1COC(=O)c1cccnc1SC	2%	4.2%	/	2%	3.4	-2%[15.4 µM]	-9.4
COc1ccccc1C1=NC(c2ccc(C)cc2)N=C1C (configuration not stated)	?	-0.2%	-3.1%	11%	-0.4	-25%	-6.6
C=CCOn1c(C)c(C(C)=O)c2c3no[n+]([O-])c3ccc21	7%	0.9%	-5.4%	16%	0.4	-39%	-1.0
CC(=O)c1cc(CN2CCC(n3nccc3NC(=O)c3ccccc3C)CC2)cs1	12%	2.6%	1.0%	14%	/	16%[15.4 µM]	-3.4
CCCCCCOC(=O)CCc1c(C)nc(N)[nH]c1=O	13%	0.6%	-6.4%	5%	?	2%	-2.5
CCOC(=O)CNC(=O)CSc1nc2cccnc2n1Cc1ccccc1	-7%	2.1%	-4.8%	3%	2.5	28%	-3.5
O=C(NCc1ccco1)/C(=C/c1ccco1)NC(=O)c1ccc(Br)o1	-14%	-0.2%	-1.7%	?	4.1	21%	-1.1
COc1ccccc1CNC(=O)COc1ccc(C)cc1	5%	-0.1%	-0.3%	11%	7.5	2%[15.4 µM]	3.1
CCOc1ccc(C(=O)NCC(=O)NCCCn2nc(C)cc2C)cc1OCC	4%	1.4%	-3.2%	10%	1.0	-7%	-6.2
c1cncc(-c2nc3ccccc3[nH]2)c1	13%	0.1%	-26%	-3%&9%	-1.1&2.3	4%	-1.7
Cc1cc(NC(=O)C2CC2)ncc1NC(=O)C12CC3CC(CC(C3)C1)C2	-12%	0.0%	-0.4%	2%	-3.6	-3%	-2.4

Bioassay records from PubChem.
